# CBX7 AlphaScr: CBX7 chromodomain binding inhibitors, primary screen, biochemical, AlphaScreen | Chromobox protein homolog 7 (Homo sapiens), O95931 | AID 1224903, 2016 | 66,000 tested, 1.1% active | normalised signal (fraction of DMSO) (test concentration not listed) | AlphaScreen His6-CBX7 / biotin-H3K27me3 peptide binding; stronger effect = lower value; in the data active means normalised signal below about 0.5;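 further: 100 nL library stock added to about 20 µL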
# Target sequence (O95931 whole entry, looked up): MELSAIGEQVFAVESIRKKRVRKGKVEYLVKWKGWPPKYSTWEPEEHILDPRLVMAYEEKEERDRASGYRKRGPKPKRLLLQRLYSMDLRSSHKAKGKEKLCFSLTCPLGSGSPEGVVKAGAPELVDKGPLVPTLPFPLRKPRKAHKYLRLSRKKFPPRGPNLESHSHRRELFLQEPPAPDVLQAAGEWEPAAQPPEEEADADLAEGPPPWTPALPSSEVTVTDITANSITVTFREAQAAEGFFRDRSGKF
# CBX7 AlphaScr z-score: second read-out of CBX7 AlphaScr, no call of its own (marks repeat the call); z-score; measured here: z-score of CBX7 signal; some inactives read as strong as hits; reference of the scale not given here;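 same signal on another scale; lower means less binding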
# An asterisk follows results filed as active; & = joins results of further samples. The list is partial. The share of hits here may be higher or lower than overall.
SMILES,CBX7 AlphaScr,CBX7 AlphaScr z-score
CCOC(=O)c1cnc2cc(Cl)c(OC)cc2c1Nc1cccc(C(F)(F)F)c1,0.88,-0.13
COc1cccc(C(=O)N(Cc2ccc(N(C)C)cc2)C2CCS(=O)(=O)C2)c1 (stereo not drawn),0.94,-0.51
CCn1cnc2cc(NCc3ccc(OC)cc3OC)ccc21,0.93,-1.9
COc1cc(-c2nc(Nc3cccc(Cl)c3)c3ccccc3n2)cc(OC)c1OC,0.78,-2.6
CCOC(=O)N1CCN(c2c(N3CCN(c4ccccc4F)CC3)c(=O)c2=O)CC1,1.2,2.7
COc1cccc(C2C(N3C(=O)c4ccccc4C3=O)C(=O)N2c2ccc(C)c(C)c2)c1 (stereo not drawn),1,1.1
Cc1nc(Nc2cccc(Cl)c2)c2c3c(sc2n1)CCCC3,1.1,5.6
O=C1CC(c2nc3ccccc3n2Cc2cccc(Cl)c2)CN1Cc1ccccc1 (stereo not drawn),0.92,-0.55
Cc1ccc(N2C(=O)CC(NCC(C)c3ccccc3)C2=O)cc1 (stereo not drawn),0.96,-0.63
Cc1cc(C)cc(OCC(=O)Nc2ccc3oc(-c4ccncc4)nc3c2)c1,0.93,-1.2

# Brought forward from above: 2 entries, then new ones.
SMILES,CBX7 AlphaScr,CBX7 AlphaScr z-score
Cc1ccc(N2C(=O)CC(NCC(C)c3ccccc3)C2=O)cc1 (stereo not drawn),0.96,-0.63
Cc1cc(C)cc(OCC(=O)Nc2ccc3oc(-c4ccncc4)nc3c2)c1,0.93,-1.2
Cc1cccc(NC(=O)CCNS(=O)(=O)c2ccc3c(c2)CCC(=O)N3)c1C,1,0.62
CCOC(=O)C1CCN(c2c(NCc3ccc(OC)cc3)c(=O)c2=O)CC1,0.99,-0.19
CCn1c(CNc2ccc(C(=O)O)cc2)nc2ccccc21,1,0.11
COCCNC(=O)CN1C(=O)CSc2ccc(S(=O)(=O)N3CCC(C)CC3)cc21,1,0.78
CCn1cc(CNC(=O)c2cc(-c3ccc4c(c3)OCO4)nc3ccccc23)c(C)n1,1.1,2
CCOc1ccc2nc(N3CCCC(C(=O)N4CC(C)CC(C)C4)C3)sc2c1 (stereo not drawn),0.86,-3.8
COc1cccc(NC(=O)CC2Sc3ccccc3NC2=O)c1 (stereo not drawn),1.1,0.77
COc1ccc(N(C)C(=O)COc2cc(=O)n(C)c3ccccc23)cc1,0.95,-0.84
COc1cccc(C(=O)Nc2nc(C(F)(F)F)c(-c3ccccn3)s2)c1,0.96&1,-0.89&0.026
CCN1CCN(c2cc(C)c3cc(NC(=O)c4ccncc4)ccc3n2)CC1,0.91,-0.64

# Four compounds drawn at random from the list so far:
SMILES,CBX7 AlphaScr,CBX7 AlphaScr z-score
CCN1CCN(c2cc(C)c3cc(NC(=O)c4ccncc4)ccc3n2)CC1,0.91,-0.64
COc1cccc(C(=O)Nc2nc(C(F)(F)F)c(-c3ccccn3)s2)c1,0.96&1,-0.89&0.026
CCOC(=O)C1CCN(c2c(NCc3ccc(OC)cc3)c(=O)c2=O)CC1,0.99,-0.19
COc1cccc(NC(=O)CC2Sc3ccccc3NC2=O)c1 (stereo not drawn),1.1,0.77

# Continuation.
SMILES,CBX7 AlphaScr,CBX7 AlphaScr z-score
CCCCNC(=O)c1ccc(CNc2c(NC3CCCC3)c(=O)c2=O)cc1,0.93,-0.17
Cc1noc(C)c1S(=O)(=O)N(CC(=O)NC1CCCCC1)c1ccc2c(c1)OCO2,1,0.17
COc1ccc(-c2cn3nc(-c4ccccc4)c(-c4ccccc4)nc3n2)cc1,1.6,0.65
Cc1ccn2c(NC(=O)c3cccc(C(F)(F)F)c3)c(-c3ccc(F)cc3)nc2c1,1,0.35
CCC(Cc1ccccc1)NC(=O)c1cc(C)nn1-c1ccccc1 (stereo not drawn),0.95,-1.3
CC(C(=O)NCC1(c2ccccc2)CCOCC1)N1CCCCC1 (stereo not drawn),1,0.69
COc1cc(OC)cc(C(=O)NCCc2cc3ccc(C)cc3[nH]c2=O)c1,0.88,-1.6
Cc1ccc(NC(=O)c2cnn3c(C(F)F)cc(C)nc23)c(C)c1,1.1,3.3
O=C(NCCN1CCOCC1)c1cn(-c2ccc(Cl)cc2)c(=O)c2ccccc12,0.99,-0.13
Cc1ccc(N2C(=O)CC2(C(=O)NC2CCCCC2)c2cccs2)cc1C (stereo not drawn),0.79,-5.2
O=C(c1ccc2c(c1)N(Cc1ccccc1)C(=O)CS2)N1CCC2(CC1)OCCO2,1,0.6
CCOc1ccc(N(C)S(=O)(=O)c2ccc3[nH]cc(C(=O)NCCOC)c(=O)c3c2)cc1,0.99,-0.079
COc1ccc(-n2c(Cc3cc(=O)[nH]c(=O)[nH]3)nnc2SCC(=O)Nc2cc(C)cc(C)c2)cc1,0.96,-0.6
Cc1ccc(OCc2nc(-c3ccncc3)no2)c(C)c1,0.92,-0.095
OCCCc1nc2ccccc2n1CCOc1ccc(Cl)cc1,0.9,-0.43
CC(=O)NC(Cc1ccccc1)c1nc2ccccc2n1Cc1ccccc1F (stereo not drawn),1.2,1.5
COc1cc(OC)cc(C(=O)Nc2nc3ccc(OC)cc3s2)c1,1.3,5
CCOc1ccc(CCNC(=O)CS(=O)(=O)Cc2nc(-c3ccc(OC)cc3)oc2C)cc1,1,0.21
Cc1ccc2nc(-c3cc(NC(=O)c4cccc(Cl)c4)ccc3O)oc2c1,0.94,-1.7
CCC(=O)NCc1nc2ccccc2n1Cc1c(F)cccc1Cl,0.84,-1.9
Cc1ccc(NS(=O)(=O)c2cccc(C(=O)Nc3cc(C)on3)c2)cc1,1.1,1.6
CCC(C(=O)Nc1cccc(OC)c1)n1c(SCc2ccc(C)cc2)nc2ccncc21 (stereo not drawn),0.92,-1.9
Cc1cccc(-n2ccnc2SCC(=O)Nc2ccc3c(c2)OCCO3)c1C,0.78,-0.22
CC(C)N(CCCNC(=O)C1CCN(c2nc3ccccc3[nH]2)CC1)Cc1ccccc1,0.82,-2.1
Nc1nonc1-c1noc(-c2ccco2)n1,0.96,-1.1
COc1ccc(CNC(=O)Cc2cn(C)c3ccccc23)c(OC)c1,0.93,-2.4
O=C1CC(NCc2cccnc2)C(=O)N1c1ccc(Cl)cc1 (stereo not drawn),0.97,-0.58
COc1ccc(-c2cc(C(=O)NC3CCCC3)no2)cc1,1.2,1.4
O=C(Cn1nc(-c2ccc(Cl)cc2)ccc1=O)NCCCN1CCOCC1,1,0.24
Cn1c(=O)c(-c2ccc3ccccc3n2)cc2cc(Br)ccc21,0.85,-2.5
O=C(CN1C(=O)COc2ccccc21)N1CCCCC1,1,0.32
O=C(Cn1ncc2c1-c1ccccc1OC2)Nc1ccc(Cl)cc1,1.2,0.97
O=C(NC1(C(=O)Nc2cccc(Cl)c2)CCCCC1)c1ccccn1,1&0.94,0.43&-0.78
O=C(CSc1nc(NCCc2ccccc2)c2ccccc2n1)NCc1ccccc1Cl,0.98,-1.1
Cc1ccc(S(=O)(=O)N2CCC(N(C)CCC(C)C)CC2)cc1,1,0.15
O=C(O)c1ccc(Nc2ncnc3c2cnn3Cc2ccccc2)cc1,0.96,-1.1
CCn1c(C(=O)N2CCC(C(=O)NCCCN(C)C3CCCCC3)CC2)cc2sccc21,1.1,0.34
Cc1ccc(-n2ncc3c(NC(c4ccccc4)c4ccccc4)ncnc32)c(C)c1,0.97,-0.74
CCCCCc1ccc(-c2ccc(C(=O)Nc3ccc(C)cc3Br)cc2)nc1,1.1,1.5
Cc1nc2cc(-c3ccccc3)nn2c(C)c1CCC(=O)NC(C)c1ccccc1 (stereo not drawn),1,1
CS(=O)(=O)CC(=O)Nc1ccc2nc3n(c(=O)c2c1)CCCCC3,0.98,-0.55
O=C(Nc1ccc(Br)cc1)C1CC(O)CN1C(=O)Oc1ccccc1 (stereo not drawn),1,0.042
c1ccc2cc(OCc3nc4ccccc4[nH]3)ccc2c1,0.94,-0.78
CC(C)Sc1oc(-c2cccs2)nc1S(=O)(=O)c1ccc(Br)cc1,0.92,-0.14
COc1ccc(-n2nc3c(c2NC(=O)CC2CCCCC2)CSC3)cc1,0.95,-1.4
Cc1ccc2nc3c(c(Nc4ccc(N(C)C)cc4)c2c1)CCC3,0.69,-7.4
O=C1CC(N2CCN(Cc3ccc4c(c3)OCO4)CC2)C(=O)N1c1ccc(F)cc1 (stereo not drawn),1,-0.067
CCC(=O)N1c2ccc(S(=O)(=O)N3CCN(CC)CC3)cc2CC1C (stereo not drawn),0.84,-0.64
COCCCNC(=O)CSc1nc(-c2ccc(OC)cc2)[nH]c1-c1ccc(OC)cc1,0.88,-5.6
CC(C)NC(=O)c1cc(-c2cccc(Cl)c2)on1,1.2,1.5

# Molecules listed so far with fluorine, in the order listed:
SMILES,CBX7 AlphaScr,CBX7 AlphaScr z-score
CCOC(=O)c1cnc2cc(Cl)c(OC)cc2c1Nc1cccc(C(F)(F)F)c1,0.88,-0.13
CCOC(=O)N1CCN(c2c(N3CCN(c4ccccc4F)CC3)c(=O)c2=O)CC1,1.2,2.7
COc1cccc(C(=O)Nc2nc(C(F)(F)F)c(-c3ccccn3)s2)c1,0.96&1,-0.89&0.026
Cc1ccn2c(NC(=O)c3cccc(C(F)(F)F)c3)c(-c3ccc(F)cc3)nc2c1,1,0.35
Cc1ccc(NC(=O)c2cnn3c(C(F)F)cc(C)nc23)c(C)c1,1.1,3.3
CC(=O)NC(Cc1ccccc1)c1nc2ccccc2n1Cc1ccccc1F (stereo not drawn),1.2,1.5
CCC(=O)NCc1nc2ccccc2n1Cc1c(F)cccc1Cl,0.84,-1.9
O=C1CC(N2CCN(Cc3ccc4c(c3)OCO4)CC2)C(=O)N1c1ccc(F)cc1 (stereo not drawn),1,-0.067

# (list continues)
SMILES,CBX7 AlphaScr,CBX7 AlphaScr z-score
COc1ccc(-c2csc(NC(=O)c3ccc(S(=O)(=O)N4CCCCC4)cc3)n2)cc1,1,0.57
CC1CCCCC1NC(=O)C1c2cccn2CC(=O)N1CCc1ccc(Cl)cc1 (stereo not drawn),1.1,1.4
O=C(Nc1ccc2c(c1)OCO2)C1c2ccccc2C(=O)N2CCc3ccccc3C12 (stereo not drawn),0.99,-0.16
O=C(Nc1nnc(-c2ccccc2)o1)c1ccc(Cl)c(Cl)c1,0.79,-0.82
COc1ccc(Nc2cc(C(=O)NCc3cccnc3)c3ccccc3n2)cc1,0.88,-1.5
O=C(CSCc1ccccc1)Nc1c(-c2ccc(F)cc2)nc2ccccn12,0.77,-6.7
CCCCCC(=O)Nc1ncc2c(n1)CC(c1ccc(OC)c(OC)c1)CC2=O (stereo not drawn),1,0.53
COc1ccc(-c2cc(C(F)(F)F)nc(N3CCC(C)CC3)n2)cc1OC,1.5,20
CCCOC(=O)c1ccc(Nc2nc3ccccc3nc2NS(=O)(=O)c2ccc(Cl)cc2)cc1,1.1,0.98
COc1ccc(OC)c(CN2C(=O)CCC2(C)C(=O)NC2CCCCCCC2)c1 (stereo not drawn),0.95,-0.41
O=C(CSc1nc(-c2ccc(F)cc2)[nH]c1-c1ccccc1)NCC1CCCO1 (stereo not drawn),0.98,-0.54
Cc1cccc(NCc2nc3ccccc3n2Cc2ccccc2F)c1,0.9,-2.7
COCCCNC(=O)CN1C(=O)COc2ccc(S(=O)(=O)N3CC(C)CC(C)C3)cc21 (stereo not drawn),0.98,-0.53
CCN(CC)C(=O)c1cn(CC(C)C)c(=O)c2cc(OC)c(OC)cc12,0.98,-0.21
O=C(Nc1nc(-c2ccccc2)cs1)c1cc(=O)[nH]c(=O)[nH]1,1,1.5
CC(NS(=O)(=O)c1ccc(F)cc1)C(c1cccs1)N1CCN(c2ccccc2)CC1 (stereo not drawn),0.86,-3.3
CC1=C(C(=O)Nc2cccc(C)n2)C(c2cccc(Br)c2)C2=C(CC(C)(C)CC2=O)N1 (stereo not drawn),1,0.015
COc1ccc2nc(N3CCC(C(=O)NCCCN4CC(C)CC(C)C4)CC3)sc2c1 (stereo not drawn),1.4,4.1
C=C(C)Cn1c(C2CC(=O)N(c3cc(OC)ccc3OC)C2)nc2ccccc21 (stereo not drawn),0.98,-0.11
Cc1ccc(-c2nc(C(=O)NCc3ccccn3)c(C)o2)cc1,1,0.4
COc1ccc(-c2cc(CCCC(=O)NCCC(C)C)no2)cc1,1,1.3
CCN(CC)S(=O)(=O)c1ccc(C(=O)Nc2nc3ccc(C)cc3s2)cc1,1,0.65
CCOC(=O)N1CCN(c2c(NCCc3ccc(OCC)c(OCC)c3)c(=O)c2=O)CC1,1,0.32
COc1ccc(Cl)cc1NS(=O)(=O)c1cnc[nH]1,1.1,2.1
COc1ccc(CNC(=O)c2cn(C3CCCC3)c(=O)c3c2c2ccccc2n3C)cc1,0.93,-1.8
CC1(C)Cc2nc(N3CCOCC3)c(C#N)cc2CO1,1,0.41
Cc1ccccc1-c1nnn(CC(=O)NCCc2ccccc2)n1,1.2,1.1
CC1=C(C(=O)Nc2cc(C)ccn2)C(c2ccc(Br)cc2)C2=C(CCCC2=O)N1 (stereo not drawn),1.2,1.7
CCOC(=O)c1ccccc1NC(=O)c1sc2ncn(Cc3cccc(F)c3)c(=O)c2c1C,1,0.29
CCCSc1nnc2c(n1)OC(c1ccccn1)Nc1ccccc1-2 (stereo not drawn),0.99,-0.43
CCc1ccc(Nc2cc(C(=O)NCc3ccc(OC)cc3)c3ccccc3n2)cc1,0.96,-0.67
CC(=O)N1c2ccc(S(=O)(=O)N(C)c3cccc(C)c3)cc2CC1C (stereo not drawn),1.4,1.7
Cc1cccc(CN2CCC(CNC(=O)C3c4ccccc4C(=O)N4CCc5ccccc5C34)CC2)c1 (stereo not drawn),1,0.043
CCOc1ccc(NC(=O)CCc2nc(-c3ccc(OC)cc3)no2)cc1,1,1
Cc1cc(NC(=O)CSc2nnc(-c3ccc(C(C)(C)C)cc3)o2)no1,0.97,-0.34
COc1ccccc1Nc1cc(C(=O)NCCCN2CC(C)CC(C)C2)c2ccccc2n1 (stereo not drawn),1.1,0.11

# Source: PubChem BioAssay
